Six1-Eya2 blk: qHTS Assay for Inhibitors of the Six1/Eya2 Interaction. Homeobox protein SIX1 (Homo sapiens) + Protein phosphatase EYA2 (Homo sapiens), …. activity change, % (test concentration not listed). AID 651725, 2012. AlphaScreen GST-Six1/His-Eya2 binding, biochemical; hits give low values; control for the full effect not named in the record. actives 0.56% (n = 360,000); in the data active = activity change below about -65%; inconclusive = about -30% to -65%; inactive = above about -30%; also: % is scaled to controls: 0 for no effect and ±100 for the full control effect; compound concentration not given in the record
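AlphaScreen with GST-Six1 and His-Eya2 (5X mix: 250 nM and 500 nM), glutathione donor and nickel acceptor beads; buffer 50 mM Tris pH 8.0, 300 mM NaCl, 1 mM TCEP; 1 h at 37 C in the dark.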
PINK1 expr mod: A Quantitative High throughput Screen to Identify Chemical Modulators of PINK1 Expression; actives 0.2% (n = 410,000); PINK1 immunofluorescence, high-content cytometry, 24 h; Potency, µM (series often up to 76.6 µM), for the others: at the top dose activation (PINK1 increase), usual class: activators; active = well fitted activation curve with a large enough effect; inconclusive = small, poorly fitted or top-dose-only effect; inactive = flat fitted curve, though single readings scatter; cell line not stated here;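 also: potency is read from the fitted curve at half-maximal effect; % of control where 0% means no effect; nearly all actives have a fitted effect of over 65% in size; a mitochondrial uncoupler was the plate control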
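Stable cell line treated 24 h with compounds at 5 concentrations (CCCP controls), then fixed and immunostained for PINK1 plus nuclear and cell stains; PINK1 immunofluorescence quantified by laser-scanning microplate cytometry.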
CtBP-E1A inh: qHTS Assay for Inhibitors of the CtBP/E1A Interaction; CtBP / adenovirus E1A interaction (AlphaScreen); actives 0.49% (n = 340,000); activity change, % (test concentration not listed); AlphaScreen GST-E1A/His-CtBP binding, 1536-well; hits give low values; control for the full effect not named in the record; in the data active means activity change below about -65%; inconclusive means about -30% to -65%; inactive means above about -30%; also: % is scaled to controls: 0 for no effect and ±100 for the full control effect; compound concentration not given in the record
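Protein mix (5X: 125 nM each GST-E1A, His-CtBP) was incubated with pinned compound 2 h at 37 deg C in dark, in 50 mM Tris pH 8.0 buffer with 300 mM NaCl. Glutathione donor and nickel acceptor beads followed; AlphaScreen signal read after 1 h.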
D2 agonist: Beta-Arrestin HTS for Positive Allosteric Modulators of the Human D2 Dopamine Receptor: Agonists; DiscoveRx PathHunter D2 beta-arrestin, luminescence, 90 min; 100% = 57 uM dopamine signal; D(2) dopamine receptor (Homo sapiens), P14416; activation, % (test concentration not listed); AID 624465, 2012; actives 0.084% (n = 360,000); in the data active = activation above about 40%; inconclusive = about 15% to 40%; inactive = below about 15%; also: compound concentration not given in the record; the text of the record calls up to 30% inactive
Target sequence (P14416 whole entry, looked up): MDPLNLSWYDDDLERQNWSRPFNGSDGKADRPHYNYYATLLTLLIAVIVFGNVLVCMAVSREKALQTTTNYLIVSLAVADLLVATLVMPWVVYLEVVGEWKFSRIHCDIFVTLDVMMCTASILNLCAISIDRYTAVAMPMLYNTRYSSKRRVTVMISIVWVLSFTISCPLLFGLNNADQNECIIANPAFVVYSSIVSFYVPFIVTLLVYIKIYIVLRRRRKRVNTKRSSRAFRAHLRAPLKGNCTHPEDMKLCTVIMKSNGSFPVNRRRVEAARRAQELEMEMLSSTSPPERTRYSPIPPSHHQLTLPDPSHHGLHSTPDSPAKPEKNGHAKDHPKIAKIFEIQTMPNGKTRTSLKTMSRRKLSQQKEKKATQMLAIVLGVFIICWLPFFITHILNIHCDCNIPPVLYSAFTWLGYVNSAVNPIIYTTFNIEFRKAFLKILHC
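Agonist mode: compounds alone added to overnight-plated D2 PathHunter cells for 90 min at 37 C, with 57 uM final dopamine (EC100) defining full response. Beta-arrestin recruitment detected by chemiluminescent reagent, read after 1 h at ambient temperature.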
TRPML1 inh: qHTS for Inhibitors of the Human Mucolipin Transient Receptor Potential 1 (TRPML1) | TRPML1-inducible cells, Ca2+ dye fluorescence, FDSS; hits give low values; inhibition of EC80 agonist-evoked calcium signal | AID 624415, 2012 | activity change, negative = inhibition, % (no concentration beside the values) | actives 0.02% (n = 390,000); in the data active means activity change below about -50%; inconclusive means about -30% to -50%; inactive means above about -30%;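 also: stimulus is agonist 54-4 at its EC80 concentration; % is scaled to controls: 0 for no effect and ±100 for the full control effect; compound concentration not given in the record; the text of the record puts the active cut at -80%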
Target sequence (Q9GZU1 whole entry, looked up): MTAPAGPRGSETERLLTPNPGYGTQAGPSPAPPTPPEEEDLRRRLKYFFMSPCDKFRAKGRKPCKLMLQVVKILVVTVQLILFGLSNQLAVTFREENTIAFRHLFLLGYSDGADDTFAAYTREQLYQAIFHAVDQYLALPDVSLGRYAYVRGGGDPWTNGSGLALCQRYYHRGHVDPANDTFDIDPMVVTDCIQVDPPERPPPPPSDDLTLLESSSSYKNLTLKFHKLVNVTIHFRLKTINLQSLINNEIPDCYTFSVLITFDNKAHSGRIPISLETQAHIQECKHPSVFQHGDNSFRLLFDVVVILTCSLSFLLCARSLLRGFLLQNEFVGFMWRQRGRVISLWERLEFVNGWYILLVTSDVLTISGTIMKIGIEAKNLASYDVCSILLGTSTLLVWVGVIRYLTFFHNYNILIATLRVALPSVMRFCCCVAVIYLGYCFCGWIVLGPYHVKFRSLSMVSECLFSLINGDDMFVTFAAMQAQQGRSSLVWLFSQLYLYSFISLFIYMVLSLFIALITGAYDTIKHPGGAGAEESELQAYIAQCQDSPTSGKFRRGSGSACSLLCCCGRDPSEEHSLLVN
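Tet-induced TRPML1-DL cells loaded with Ca8 no-wash calcium dye were read kinetically on FDSS. Compound addition was followed by EC80 agonist 54-4 (4 uM final); inhibition was read over 110 s.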
TRPML1 agonist: qHTS for Agonists of the Human Mucolipin Transient Receptor Potential 1 (TRPML1); Mucolipin-1 (Homo sapiens), Q9GZU1; TRPML1-expressing cells, Ca2+ dye fluorescence, FDSS; host cell line not named in the record; reference of the full effect not given here; activation, % (no concentration beside the values); actives 0.12% (n = 410,000); in the data active = activation above about 50%; inconclusive = about 30% to 50%; inactive = below about 30%; also: 0% is about no effect; the text of the record puts the active cut at 80%
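Kinetic FDSS Ca2+ read in Tet-induced TRPML1-DL cells (ABD Ca8 dye plus quencher, 45-90 min RT loading): baseline, then compound, then 110 s agonist window; EC80 agonist 54-4 at 4uM final added afterwards for a 110 s antagonist window.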
* = called active by the depositor; ? = inconclusive; . = no result given; [ ] = remark or other dose.

SMILES	Six1-Eya2 blk	PINK1 expr mod	CtBP-E1A inh	D2 agonist	TRPML1 inh	TRPML1 agonist
COc1cccc(-c2cc(-c3cccnc3)nc(N)c2C#N)c1	4	8.7%	.	-3.6	-9	0.0
O=C(c1sc2cccc(Cl)c2c1Cl)N1CCN(CCc2ccccn2)CC1	-7	-1.1%	.	1.5	4	1.2
N#Cc1ccccc1S(=O)(=O)N1CCN(C(=O)CN2CCCC2c2cccs2)CC1 (stereo unspecified)	4	0.4%	0	-0.5	-1	-0.3
CCc1c(C)c2c(C)nn(-c3ccccc3)c2oc1=O	-21	1.1%	?	-2.1	16	2.5
CSc1sc(C)cc1/C=N/O	10	5.1%	-9	-0.6	4	-0.4
CCCCN(Cc1ccccc1)C(=O)c1cnc2n(c1=O)CCS2	2	-0.9%	4	-3.2	-4	-0.7
CCc1ccc(NC(=O)Cn2ncc3c(C)n(Cc4cccc(Cl)c4)c(C)c3c2=O)cc1	.	-1.4%	.	.	5	-0.7
CCOc1cc(/C=N/Nc2nc(-c3cccs3)c(NC(C)=O)s2)ccc1O	-16	4.8%	?	?	-3	0.3
Cc1ccc2c(cnn2C(=O)CCCC(=O)NCc2ccc(Cl)cc2)c1	8	9.4%	-11	-6.4	2	0.1
Cc1ccc(Sc2ccc(N3CCCC(C(=O)Nc4ccc(Cl)cc4)C3)nn2)cc1 (stereo unspecified)	.	0.8%	.	.	46	0.9
CC1CCN(C(=O)Cn2cc(SCc3ccccc3)c3ccccc32)CC1	.	5.0%	.	.	55	2.4
O=C(Nc1cccc(C(=O)O)c1)/C(=C\c1ccccc1)NC(=O)c1ccccc1	6	1.4%	.	3.4	0	-0.5
CCNC1CCC(Nc2ccnc3cc(Cl)ccc23)CC1 (stereo unspecified)	-2	14%	-11	4.4	-13	1.3
O=C(CCC1CCCN(Cc2ccc3c(c2)OCCO3)C1)NCc1ccc(F)c(F)c1 (stereo unspecified)	0	-0.1%	.	-5.0	1	0.6
CC1CCN(C(=O)c2cc(-c3cccc(Cl)c3)on2)CC1	.	1.3%	.	.	13	-1.3
CCc1ccccc1NC(=O)C1CCCN(S(=O)(=O)c2ccc3c(c2)CC(C)N3C(C)=O)C1 (stereo unspecified)	3	1.6%	-10	-5.8	7	1.0
COc1ccc(Cn2c(C(=O)O)c(CNCc3ccc(C)o3)c3ccc(C)cc32)cc1	.	1.8%	.	.	24	5.5
CN(Cc1ccccn1)C(=O)C1CCC(=O)N(CCc2ccc(Cl)cc2)C1 (stereo unspecified)	0	2.2%	8	1.6	21	0.5
O=S(=O)(Nc1ccc(S(=O)(=O)Nc2cccc3ccccc23)cc1)c1ccccc1	-2	0.7%[38.3 µM]	0	-2.4	-6	3.3
CC(=O)N1CCN(Cc2cc(=O)oc3cc(C)cc(C)c23)CC1	13	8.2%	-16	5.0	39	1.4
NC(=S)NN=C1CCCC(C(F)(F)F)C1 (stereo unspecified)	-12	1.6%	-3	0.8	-3	0.0
O=Cc1ccc2ccc3cccnc3c2n1	-69*	-0.4%	-93*	1.4	0	-1.3
O=C(NCc1ccc(F)cc1)c1cc(C2CCCCN2S(=O)(=O)c2cccc3cccnc23)on1 (stereo unspecified)	0	0.0%	0	-1.2	.	-0.6
O=C(Nc1ccc(SC(F)F)cc1)c1ccc2c(=O)n3c(nc2c1)CCC3	11	8.0%	13	2.3	-2	16
Cc1ccnc(NC(=O)CCNC(=O)c2ccc(Br)cc2)c1	1	0.1%	-1	2.4	8	-0.5

A different layout for part of the listing above:
| SMILES | Six1-Eya2 blk | PINK1 expr mod | CtBP-E1A inh | D2 agonist | TRPML1 inh | TRPML1 agonist |
| --- | --- | --- | --- | --- | --- | --- |
| N#Cc1ccccc1S(=O)(=O)N1CCN(C(=O)CN2CCCC2c2cccs2)CC1 (stereo unspecified) | 4 | 0.4% | 0 | -0.5 | -1 | -0.3 |
| CCc1c(C)c2c(C)nn(-c3ccccc3)c2oc1=O | -21 | 1.1% | ? | -2.1 | 16 | 2.5 |
| CSc1sc(C)cc1/C=N/O | 10 | 5.1% | -9 | -0.6 | 4 | -0.4 |
| CCCCN(Cc1ccccc1)C(=O)c1cnc2n(c1=O)CCS2 | 2 | -0.9% | 4 | -3.2 | -4 | -0.7 |
| CCc1ccc(NC(=O)Cn2ncc3c(C)n(Cc4cccc(Cl)c4)c(C)c3c2=O)cc1 | . | -1.4% | . | . | 5 | -0.7 |

The results go on.
SMILES	Six1-Eya2 blk	PINK1 expr mod	CtBP-E1A inh	D2 agonist	TRPML1 inh	TRPML1 agonist
Cn1cnnc1SCC(=O)NCCc1ccc(Cl)cc1Cl	0	1.1%	7	-5.7	1	-0.4
c1ccc(-c2cnc(-c3ccccn3)nn2)cc1	-91*	-1.5%	-86*	-0.2	6	-0.3
CC(C)=CCN1CCC(n2nccc2NC(=O)c2ccccc2Cl)CC1	-4	0.0%	22	-7.3	6	-0.2
COc1cc(OC)c(NC(=O)N2CCC(CN3CCCC3)CC2)cc1Cl	.	0.0%	.	.	-29	1.6
COc1ccc(-c2cc(=Nc3ccc(C)cc3)c3ccccc3o2)cc1	?	13%	?	-4.3	47	4.6
COCCN1CCN(C(=O)c2ccc3nc(Cc4ccc(OC)c(OC)c4)oc3c2)CC1	9	-0.1%	-11	-2.6	9	0.8
C=C1CCC[C@]2(C)C[C@H]3OC(=O)C(CNCC(OC)OC)[C@H]3CC12 (stereo partly specified)	9	0.4%	4	-2.9	33	1.3
Cc1cc(C)cc(NC(=O)CSc2nc(N)c(NC(=O)c3ccc(Br)o3)c(=O)[nH]2)c1	-18	5.0%	0	-4.9	4	0.0
CCC(=O)NNc1ncnc2c1cnn2C	14	1.4%	-6	-6.1	4	0.0
COc1cccc(OC)c1C(=O)Nc1ccc(N2CCN(C(=O)c3ccco3)CC2)cc1	-6	-1.1%	-11	0.2	0	-0.6
CCSc1nc2ccccc2n1Cc1cccc([N+](=O)[O-])c1	-3	1.7%	-4	-6.7	24	4.2
CC(=O)C1=C(c2ccccc2)NC(=S)NC1c1cc(Cl)c(OC(C)C)c(Cl)c1 (stereo unspecified)	-20	5.5%	-26	-0.7	-6	5.2
O=C(c1cc2c(s1)CCC2)N1C(=O)c2ccccc2S1(=O)=O	8	-1.5%	4	-0.7	12	-0.2
Cc1cc(C)cc(-n2c(C)cc(/C=N/NC(=O)c3ccncc3)c2C)c1	-9	5.2%	-7	1.2	-1	-0.6
COc1ccc(C(=O)OCC(=O)N2CCN(S(=O)(=O)c3ccc(C)cc3)CC2)cc1[N+](=O)[O-]	-1	0.5%	2	1.2	-11	-0.1
COC(=O)c1ccc(NC(=S)NCCc2ccccc2)cc1	5	0.0%	0	-1.4	11	1.5
CCCC(=O)Nc1cc(-c2nc3ncccc3o2)ccc1C	1	0.5%	6	0.4	-7	-1.2
CN(Cc1ccccc1F)C(=O)c1ccc(NS(=O)(=O)c2ccc3[nH]c(=O)[nH]c3c2)cc1	-5	-0.9%	-3	-0.5	9	0.3
CN(C)/C=C1\C(=O)NN=C1C(F)(F)F	10	1.2%	-4	-4.5	19	0.0
Clc1ccccc1C1CC(c2ccccc2)Nc2ncnn21 (stereo unspecified)	0	1.4%	5	1.0	-3	0.1
CCOc1ccccc1N1CCN(C(=S)NC(=O)C23CC4CC(CC(C4)C2)C3)CC1	-26	0.6%	-11	-4.8	64	2.4
COCc1[nH]nc2c1C(c1ccnc3ccccc13)C(C#N)=C(N)O2 (stereo unspecified)	-7	?	0	0.1	-3	0.7
CCOC(=O)C1=C(C)c2ccccc2OC1(CC)C(=O)OCC (stereo unspecified)	21	1.9%	1	0.5	2	0.1
Cc1ccc2c(=O)c(C(=O)c3ccc(F)cc3)cn(CC(=O)NCc3ccccc3Cl)c2n1	.	1.2%	.	.	10	1.1
COc1cc(C(=O)NCCc2sc(-c3cccc(F)c3)nc2C)cc(OC)c1OC	.	3.2%	.	.	-9	3.2
(continued)
SMILES	Six1-Eya2 blk	PINK1 expr mod	CtBP-E1A inh	D2 agonist	TRPML1 inh	TRPML1 agonist
COc1cccc(CN(C)C(=O)c2cc(-c3ccc(OC)c(OC)c3)nc3ccccc23)c1	3	-1.6%	-4	-2.5	47	4.0
C[C@@H]1NC(=O)c2cc([N+](=O)[O-])cc(I)c2NCC[C@@H](C(N)=O)NC(=O)[C@H](CC(N)=O)NC1=O	4	0.9%	.	-2.1	-17	-0.4
O=C(CCn1c(=O)sc2ccccc21)Nc1cccnc1	-6	.	-11	-3.1	-4	-0.2
CN(CCc1ccccc1)C(=O)c1cccc(NC(=O)Cc2cccc(NC(=O)C3CCCN(S(=O)(=O)c4cccc([N+](=O)[O-])c4)C3)c2)c1 (stereo unspecified)	-3	-0.6%	0	5.8	-10	-0.5
COc1ccccc1CN1C[C@@H]2C[C@@H](c3ccc(C)c(C)c3)N3CCC[C@@]23C1=O	-14	1.6%	-8	-2.6	2	-0.4
O=C(Cn1cnc2ccccc2c1=O)N1CCOCC1	1	-1.0%	3	-0.4	-29	-0.3
O=S(=O)(Cc1ccccc1Cl)NCCOc1ccccc1	5	2.8%	4	-2.9	-6	-0.7
CCC(=O)N(C)CCc1cc2c(c(OC)c1/C=N/NC(=O)c1ccncc1)OCO2	3	11%	2	-4.3	-15	2.9
COC(=O)/C(=C/c1ccco1)NC(=O)c1ccccc1	5	-2.3%	5	-1.1	8	-0.5
COc1ccc(Cn2ccnc2SCC(=O)Nc2ccccc2OC)cc1	-7	0.4%	-2	5.1	11	-0.1
Cc1cccc(NC(=S)NC(=O)CCc2ccccc2)c1	-1	8.9%	4	-8.2	3	0.8
O=C(CSC1CS(=O)(=O)c2cc([N+](=O)[O-])ccc21)NNC(=O)c1ccccc1 (stereo unspecified)	-6	-0.6%	2	5.0	27	4.7
Cc1ccc(C(=O)Nc2c(C(=O)NCc3ccco3)cnn2-c2ccccc2)cc1	-7	-0.7%[38.3 µM]	14	-1.6	-4	0.8
COc1ccc2oc(=O)c(C(=O)NCc3ccccn3)cc2c1	-7	-1.4%	-7	-5.1	-6	-1.1
C#CCOc1ccc(CNC[C@H]2O[C@@H](n3ccc(N)nc3=O)[C@H](O)[C@@H]2O)cc1	-6	1.5%	0	-6.3	12	0.4
COC(=O)CN1C(=O)C(O)(c2c(C)[nH]c3ccccc23)c2ccccc21 (stereo unspecified)	.	-0.9%	.	.	-7	0.8
COCCCN(C(=O)C1CCC1)c1c(N)n(Cc2ccccc2)c(=O)[nH]c1=O	4	0.8%	-1	-0.7	6	1.8
c1ccc2[nH]c(CCCc3nc4ccccc4[nH]3)nc2c1	-6	0.3%	-12	-5.6	-18	0.5
Cc1cc2oc3c(c(=O)c2cc1C)C(c1ccc(F)cc1)N(CCCN1CCOCC1)C3=O (stereo unspecified)	3	-0.7%	-5	0.9	12	0.1
O=C(COC(=O)CC12CC3CC(CC(Br)(C3)C1)C2)NC(=O)NCc1ccco1	-16	6.2%	-5	-2.0	-5	0.4

Assay outcomes (PubChem)
